Source: PubChem (National Center for Advancing Translational Sciences (NCATS))
LASV entry inh: inhibitors of Lassa virus binding or cell entry. Lassa virus pseudotype entry inhibition, cell reporter; control for the full effect not named in the record. Potency, µM (series often up to 37.9 µM), inactives show at the top dose activity change, negative = inhibition, hits mostly inhibitors. 1.2% of 300,000 active. AID 540256; active means well fitted inhibition curve with a large enough effect; inconclusive means small, poorly fitted or top-dose-only effect, or effect the other way; inactive means flat fitted curve, though single readings scatter; tested in HEK293 cells; also: % is scaled to controls: 0 for no effect and ±100 for the full control effect; nearly all actives have a fitted effect of over 50% in size; luciferase read-out
Cruzain noTriton: inhibitors of Trypanosoma cruzi cruzain without detergent | 2.3% of 200,000 active | Potency, µM, for inactives: max response, negative = inhibition, most hits filed as inhibitors | purified cruzain, Z-FR-AMC fluorescence, no detergent | P25779 | AID 1476;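 also: plate controls were enzyme without inhibitor for no effect and buffer without enzyme for full effect; nearly all actives have a fitted effect of over 40% in size; top concentration of the series not given in the record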
Target sequence (P25779 123-467 limits assumed): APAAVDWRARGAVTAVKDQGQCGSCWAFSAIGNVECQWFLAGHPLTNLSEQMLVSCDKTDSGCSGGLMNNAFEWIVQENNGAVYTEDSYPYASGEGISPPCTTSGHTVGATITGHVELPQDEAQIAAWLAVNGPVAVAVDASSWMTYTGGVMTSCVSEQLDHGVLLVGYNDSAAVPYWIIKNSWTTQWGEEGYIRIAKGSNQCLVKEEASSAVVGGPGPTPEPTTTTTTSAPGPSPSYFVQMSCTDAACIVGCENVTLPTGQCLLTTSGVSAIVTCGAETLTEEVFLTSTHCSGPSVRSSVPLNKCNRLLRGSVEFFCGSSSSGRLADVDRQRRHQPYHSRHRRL
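Detergent-free condition (0.00005% Triton X-100) in acetate buffer pH 5.5 with DTT. 1.5 nM enzyme and compound were pre-mixed 15 min, then 2 uM Z-FR-AMC substrate added; reaction progress from fluorescence change between first and third reads (60 s).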
MARV entry inh: Marburg virus entry inhibition; Potency, µM (doses to about 37.8 µM), without a hit: top-dose activity change, negative = inhibition, hits mostly inhibitors; Marburg virus pseudotyped entry inhibition, cell reporter; control for the full effect not named in the record; about a third of the inactives were read at about 46 µM; 1.8% of 300,000 active; AID 540276; active = well fitted inhibition curve with a large enough effect; inconclusive = small, poorly fitted or top-dose-only effect, or effect the other way; inactive = flat fitted curve, though single readings scatter; tested in HEK293 cells; about a fifth of its hits are not listed in these tables; also: % is scaled to controls: 0 for no effect and ±100 for the full control effect; luciferase read-out
SARS PLP yeast: blocks SARS-CoV papain-like protease in a yeast assay. S. cerevisiae expressing SARS-CoV PLpro, growth rescue; control for the full effect not named in the record. AID 485353. 0.19% of 330,000 active. Potency, µM (top dose mostly 32.9 µM), inactives show top-dose activity, positive = growth rescue; active means well fitted rising curve with a large enough effect; inconclusive means small, poorly fitted or top-dose-only effect; inactive means no such curve, though single readings can be large or run the other way; also: 0% is about no effect; nearly all actives have a fitted effect of over 55% in size; growth read by luminescence after 48 h
RE007 growth inh: less growth of the S. pombe RE007 Vpr strain; AID 651644; Potency, µM (highest dose often 92.2 µM), for inactives: at the highest dose activity change, negative = less growth; S. pombe RE007 Vpr strain, BacTiter-Glo ATP luminescence, 24 h; control for the full effect not named in the record; 0.21% of 360,000 active; active = well fitted falling curve with a large enough effect; inconclusive = small, poorly fitted or top-dose-only effect; inactive = no such curve, though single readings can be large or run the other way;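 also: % is scaled to controls: 0 for no effect and ±100 for the full control effect; nearly all actives have a fitted effect of over 50% in size; the assay follows cell death caused by Vpr and the record does not say whether a fall means rescue or toxicity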
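Fission yeast RE007 carrying one integrated HIV-1 vpr copy, seeded at OD 0.01 in PMG+AL medium with 23 nL pinned compound. Grown 24 h at 30 degrees; viability read by BacTiter-Glo luminescence after 5 min.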
NS1 inh: blocks influenza NS1 protein function; S. cerevisiae slowed by influenza A NS1, growth recovery by OD600; Potency, µM (titrated, usually from 46.1 µM), for inactives: top-dose activity, positive = more growth; 0.4% of 270,000 active; AID 2326; active means well fitted rising curve with a large enough effect; inconclusive means small, poorly fitted or top-dose-only effect; inactive means no such curve, though single readings can be large or run the other way; also: nearly all actives have a fitted effect of over 50% in size
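Read-out: OD600 growth recovery of NS1-expressing budding yeast. Cells grown overnight at 30C in -URA glucose medium, washed, resuspended and diluted 1:100 in 2% galactose assay medium, pH 6.0. Same strain lacking NS1 served as positive control.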
StopGo reporter: lowers the luciferase signal of an FMDV 2A StopGo reporter; Potency, µM (doses to about 57.9 µM), inactives show at the highest dose signal change, negative = less light; AID 1159524; 1.2% of 410,000 active; human cells with a luciferase reporter of 2A StopGo recoding; control for the full effect not named in the record; active = well fitted falling curve with a large enough effect; inconclusive = small, poorly fitted or top-dose-only effect; inactive = no such curve, though single readings can be large or run the other way; tested in HEK293T cells; also: % is scaled to controls: 0 for no effect and ±100 for the full control effect; nearly all actives have a fitted effect of over 45% in size; luciferase light after 4 h
Cruzain Triton: cruzain (T. cruzi) inhibition with detergent; purified cruzain, Z-FR-AMC fluorescence, 0.01% Triton; Potency, µM, for the others: max response, negative = inhibition, hits mostly inhibitors; 0.43% of 200,000 active;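 also: plate controls were neutral wells for no effect and buffer without enzyme for full effect; nearly all actives have a fitted effect of over 40% in size; top concentration of the series not given in the record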
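Detergent-containing arm of a paired screen for aggregation-based inhibition: 0.01% Triton X-100 present. Cruzain at 1.5 nM cleaved 2 uM Z-FR-AMC at pH 5.5 with 5 mM DTT; AMC fluorescence gain over 60 s measured activity.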
* hit, by the source's call; ? = inconclusive; / = no result given; & = joins results of further samples; [ ] = dose if it differs, or a comment. Unless noted, calls follow the shape of the dose curve; as a rule, active = well fitted curve in the direction sought with a large enough effect; inconclusive = small, poorly fitted or top-dose-only effect, or another doubt; inactive = no such curve, though single readings can be large; an effect the other way counts as inactive or inconclusive. Potency is read from the fitted curve at half-maximal effect.

SMILES	LASV entry inh	Cruzain noTriton	MARV entry inh	SARS PLP yeast	RE007 growth inh	NS1 inh	StopGo reporter	Cruzain Triton
CCOc1ccc(OCC)c(NC(=O)C2CCCN(S(=O)(=O)c3cccs3)C2)c1 (configuration not stated)	-29%	3%	?	8%	-1%	-27%	?	3.4%
CC(=O)NC1=NN(C(C)=O)C2(CCCCC2)S1	3%	-7%	-4%	22%	3%	5%	/	-1.1%
CCOc1ccccc1NC(=O)NCCCCc1ccccc1	/	/	/	-8%	-2%	2%	2%	/
CC1CC(=O)Nc2ccccc2N1C(=O)CSc1ccc2ccccc2n1 (configuration not stated)	-17%	/	3%	1%	4%	/	5%	/
Cc1cc(C)c(C)c(S(=O)(=O)N2C(=S)NC(=O)C2CC(C)C)c1C (configuration not stated)	-9%	?	-20%[46.1 µM]	-12%	6%	-4%	-21%	-9.9%
COc1ccc2c(C)cc(SCC(=O)Nc3nsc(-c4ccccc4C)n3)nc2c1	22%[46.1 µM]	?	21%[46.1 µM]	/	/	/	-12%	0.1%
Cc1ccc(NC(=O)/C=C/c2ccc3c(c2)OCO3)cc1S(=O)(=O)N1CCOCC1	?	20µM*	?	19%	24%	-4%	?	13µM*
Brc1ccccc1-c1nnc(-c2cccnc2)o1	4%	-4%	13%	-7%	?	-8%	60%[activator]	7.1%
CC(=O)N(CCCc1ccc(C(C)(C)C)cc1)CCCN(C)C	-7%	8%	?	-8%	7%	-7%	/	6.2%
COc1ccc(-c2cc(C(=O)NCCc3ccccc3)c3c(-c4ccccc4)[nH]nc3n2)cc1OC	1%[46.1 µM]	?	0%[46.1 µM]	/	/	/	5%	-4.5%
CCOc1ccc2c(c1)C(C)=CC(C)(C)N2S(=O)(=O)c1ccc(C)cc1	?	/	2.8µM*	-4%	6%	3%	-10%	/
COC(=O)c1ccc(NC(=O)C2CCN(S(=O)(=O)c3ccc4c(c3)CCCN4C(C)=O)CC2)cc1	-13%[46.1 µM]	?	/	/	/	/	?	-5.1%
COC(=O)c1scc(-c2ccc(C)cc2)c1S(=O)(=O)N1CCN(c2ccccc2F)CC1	-11%[46.1 µM]	9%	/	/	/	/	14%	5.1%
CCOC(=O)C1=C(C)N(CC(C)C)C(=O)/C1=C\c1ccc(OCC(=O)Nc2ccccc2)cc1	-6%	-6%	-21%	-2%	8%	29%	?	1.5%
CC(=O)N1[C@H](Cc2ccccc2)C=C[C@]1(C)C(=O)NCCN1CCOCC1	/	-7%	/	0%	-1%	-13%	-3%	-0.4%
Cn1c(SCC(=O)OC2CCCCC2)nnc1-c1ccco1	2%	?	13%[46.1 µM]	19%	4%	2%	33%[activator]	3.4%
CC(=O)c1cccc(NC(=O)c2cc(-c3cccs3)on2)c1	17%[46.1 µM]	/	?	0%	-9%	-4%	52%[activator]	/
CC1CN(C(=S)Nc2ccc(Br)cc2Cl)CC(C)O1 (configuration not stated)	3%	/	7%	0%	18%	0%	39%[activator]	/
Cc1sc2ncnc(N)c2c1C	/	/	/	0%	-1%	5%	-6%	/
CN1CCCCc2c1nc1c(c2N)CCCC1	-30%[14.3 µM]	-1%	?	-1%	-6%	3%	-2%	2.3%
CCN(CC)S(=O)(=O)c1ccc(OC)c(NS(=O)(=O)Cc2ccccc2)c1	/	/	/	-4%	13%	13%	-11%	/
CCOc1ccc(NC(=O)CN2CCN(CC(=O)Nc3cc(OC)cc(OC)c3)CC2)cc1	-11%	3%	3%[46.1 µM]	0%	17%	-21%	-16%	-1.7%
CCOc1ccccc1NC(=O)C1CCCN(C(=O)NCc2ccccc2)C1 (configuration not stated)	-22%	1%	-2%	-1%	6%	1%	-2%	-2.1%
CC1CCN(c2nc3c(c(=O)[nH]c(=O)n3C)n2CCCc2ccccc2)CC1	/	14%	/	-21%	1%	-5%	?	0.3%
Cc1ccccc1Cn1ccc(NC(=O)c2cnn3c(C(F)(F)F)cc(-c4ccco4)nc23)n1	-37%	-23%	?	-2%	-1%	3%	/	-0.6%
CCN(CC)S(=O)(=O)c1ccc(N(C)C)c(NC(=O)CSCc2c(C)noc2C)c1	?	/	-26%	3%	3%	-13%	-5%	/
COC(=O)Cc1ccc(NC(=S)NCc2ccccc2)cc1	6%	7%	1%	24%	12%	8%	0%	-3.4%
COc1nc(-c2ccccc2)ccc1-c1noc(-c2ccccc2)n1	17%	?	?	-2%	1%	-22%	42%[activator]	-1.6%
CCOC(=O)c1sc(N)c(C#N)c1COC(=O)CNC(=O)c1ccccc1	-5%	-23%	4%	0%	-10%	-8%	-4%	-9.1%
CCC1=C(OC(=O)N(CC)CC)N2C(=O)OC(=NCC3CC3)[C@]2(Cc2ccccc2)[C@H]2C1=CC[C@H]1C(=O)N(c3ccccc3)C(=O)[C@H]12	/	?	/	1%	1%	-13%	-8%	-0.7%
Cc1cc(C)cc(NC(=O)NCC(O)COc2ccc([N+](=O)[O-])cc2)c1 (configuration not stated)	/	/	/	0%	-4%	3%	-8%	/
CCOC(=O)N/N=C(/C)c1ccc([N+](=O)[O-])o1	/	-3%	-3%	?	/	-10%	/	1.2%
Cc1nc(SCC(=O)NC(=O)NC2CCCCC2)nc(C)c1C	-4%	/	1%[46.1 µM]	0%	-27%	/	20%	/
CC(=O)c1cc(-c2ccc(F)cc2)n(CCC(=O)Nc2nc3ccc(C)cc3s2)c1C	?	0%	/	/	/	/	-29%	-6.0%
CC(=O)NC(c1ccc(Cl)cc1)c1c(O)ccc2ccc(O)cc12 (configuration not stated)	15%	/	?	0%	2%	5%	?	/
O=C(Cn1cc(C(F)(F)F)cc(Cl)c1=O)NCc1ccccc1	?	/	?	1%	14%	-1%	60%[activator]	/
Cc1cc(C)c2sc(NC(=O)c3ccc(N4C(=O)CCC4=O)cc3)nc2c1	/	/	/	1%	-12%	3%	16%	/
C(=C\c1ccncc1)/c1ccncc1	/	/	/	-1%	-15%	-2%	-7%	/
C=CCn1c(SCC(=O)Nc2ccc3c(c2)OCO3)nc2ccccc2c1=O	14%	-8%	6%&-2%	4%	10%	-10%	/	0.6%
CCCCN(CCCC)CCCNC(=O)c1ccc2nc(-c3ccccc3NC(C)=O)c(=O)[nH]c2c1	2%	/	-1%	-2%	-3%	/	15%	/
N#Cc1ccccc1OCC(=O)OCC(=O)NC1CCCCCC1	-1%	/	?	-4%	2%	/	-5%	/
O=S(=O)(NCCc1cn2ccccc2n1)c1ccc(F)c(C(F)(F)F)c1	/	-11%	/	-8%	-21%	-65%	-17%	25µM*
Cc1ccc(C(=O)OCc2nnc(-c3ccccc3)o2)o1	2%	4%	6%	-16%	-21%	-77%	12%	4.3%
Cc1ccc2[nH]c3c(=O)n(N)c(=O)[nH]c3c2c1	-4%	/	-7%[46.1 µM]	0%	-13%	2%	62%[activator]	/
CCN(CC)Cc1c(O)ccc2c(-c3ccccc3)cc(=O)oc12	-15%	?	21%	-1%	-11%	-1%	-30%	-28%
COc1ccc(C(=O)NCCN2CCOCC2)c(OC)c1OC	4%	/	5%[46.1 µM]	1%	7%	5%	-6%	/
CC(C)CCNC(=O)c1cccc(S(=O)(=O)N2CCc3ccccc32)c1	4µM*	-7%	?	7%	40%	-7%	3%	-7.7%
Cc1nc(-c2ccc(Cl)cc2)sc1C1(C)CC(c2c(Cl)cccc2Cl)=NO1 (configuration not stated)	/	/	/	0%	-3%	10µM*	-25%	/
CN1CCN(S(=O)(=O)c2cccc(C(=O)Oc3ccccc3Cl)c2)CC1	10%	/	12%	4%	-10%	-12%	-12%	/
CCCn1ncc(CN2CCC(Oc3ccc(C(=O)N4CCCC4)cc3)CC2)c1C	/	/	/	-3%	25%	-8%	-2%	/
CCCCNc1nc(Oc2ccc(OCC(N)=O)nn2)nc(N2CCOCC2)n1	24%[46.1 µM]	9%	0%[46.1 µM]	/	/	/	-9%	2.2%
CCNc1nc(NCC)nc(OCCNS(=O)(=O)c2ccccc2)n1	3%	/	0%[46.1 µM]	-2%	14%	-2%	-2%	/
Cc1cccnc1NC(=O)c1ccc(Cl)c(S(=O)(=O)N2CCCCC2)c1	-4%	/	-17%	-3%	-1%	/	27%	/
COc1cc(OC)cc(-c2nnc(SCC(=O)N(C(C)C)C(C)C)o2)c1	-27%	?	-20%	1%	-1%	-7%	-6%	3.8%
COc1ccc(S(=O)NC2CCCCC2)c(OC)c1C (configuration not stated)	0%	-6%	?	-4%	1%	7%	34%[activator]	1.2%
O=C(CN1C(=O)CCC1=O)Nc1ccc(Br)cc1	-10%	-13%	0%	17%	14%	-43%	-1%	-0.5%
CCOC(=O)c1c(C)[nH]c(C(=O)N(C)Cc2cccc(OC)c2OC)c1C	?	/	?	17%	0%	16%	-13%	/
COc1ccc(NC(=O)c2ccc3c(c2)N(Cc2cccc(Cl)c2)C(=O)c2ccccc2S3(=O)=O)cc1Cl	-5%[46.1 µM]	3.2µM*	-16%[46.1 µM]	/	/	/	-17%	-0.2%
CON(C)c1nc(NCC(C)C)nc(OCC#N)n1	3%	-4%	5%	-5%	-1%	5%	0%	2.7%
CC(=O)N(C1=C(O)c2ccccc2C(=O)C1=O)C1CCCCC1	8%	-1%	29%	1%	-9%	10%	3%	-3.0%
CCn1cc(C2=NOC(C(=O)O)C2)c(C)n1 (configuration not stated)	-12%[14.3 µM]	-2%	-20%	4%	-5%	8%	-12%	3.4%
N#Cc1ccccc1NC(=O)COC(=O)COc1ccccc1[N+](=O)[O-]	5%	/	1%[46.1 µM]	-7%	6%	/	-5%	/

An excerpt from above, showing only Cruzain Triton and LASV entry inh:
| Molecule | Cruzain Triton | LASV entry inh |
| --- | --- | --- |
| O=C(CN1C(=O)CCC1=O)Nc1ccc(Br)cc1 | -0.5% | -10% |
| CCOC(=O)c1c(C)[nH]c(C(=O)N(C)Cc2cccc(OC)c2OC)c1C | / | ? |
